# Source: PubChem BioAssay
# RanGTP-Impb inh: disruptors of Ran-importin-beta complex formation – biochemical, FRET, CFP-Ran, YFP-importin-beta, homogeneous, primary screen | actives 1.1% (n = 300,000) | cell-free CFP-Ran/YFP-importin-beta FRET ratio | inhibition, % (concentration not given with the values);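 active means most replicates above 15%; inconclusive means exactly half above 15%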;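 further: 0% = DMSO wells and 100% = Ran loaded with GDP instead of GTP; wells of about 40 µL received 100 nL stock; the first replicate is given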
# Vif A3G: inhibitors of Vif binding to APOBEC3G peptide, primary screen, biochemical, TR-FRET, GST-Vif 1-94, biotin-A3G peptide, dose response retest (AID 1117319); TR-FRET GST-Vif / biotin-A3G peptide binding; higher % means a stronger effect; test concentration not given here; strong numbers were not always called active; one-dose inhibition, %; IC50 in µM for titrated hits; actives 0.57% (n = 260,000);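 active means above the screen mean plus three standard deviations and confirmed in dose response; inconclusive means results disagree or hit not tested in dose response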;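 further: Vif residues 1-94 fused to GST binding biotinylated APOBEC3G peptide 110-148; 0% = full assay without inhibitor and 100% = GST in place of GST-Vif; retest series ran down from 100 µM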
# A1 inh: inhibitors of the anti-apoptotic protein A1, read as caspase activation. actives 0.066% (n = 330,000). MEF A1-2A-BIM cells, Caspase-Glo 3/7 luminescence, 3 h; percent of clofoctol response, vehicle zero. caspase activation, % (concentration not given with the values). AID 2462;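 active means over half of replicate activation scores above 10%, or exactly half above 10 with the replicate mean above 10; inconclusive means replicate mean below 10 yet half the replicates above 10; inactive means over half of replicates below 10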;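 further: wells of about 30 µL received 50 nL stock; many hits fall short of the cut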
# AF4-AF9 inh: MLL-AF4/AF9 protein interaction inhibition. AlphaScreen, biotin-AF4 peptide binding to FLAG-AF9. AID 651704. inhibition, % at 10 µM. P42568. actives 0.47% (n = 350,000);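 active means every replicate reaching a set inhibition limit, whatever the replicate mean, cut at about 25% in these data; inconclusive means mean inhibition reaches that limit but some replicates miss it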;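 further: 0% = plate neutral control median and 100% = total signal loss; the record names both 10 and 1 µM as test concentration; the first replicate is given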
# Target sequence (P42568 whole entry, looked up): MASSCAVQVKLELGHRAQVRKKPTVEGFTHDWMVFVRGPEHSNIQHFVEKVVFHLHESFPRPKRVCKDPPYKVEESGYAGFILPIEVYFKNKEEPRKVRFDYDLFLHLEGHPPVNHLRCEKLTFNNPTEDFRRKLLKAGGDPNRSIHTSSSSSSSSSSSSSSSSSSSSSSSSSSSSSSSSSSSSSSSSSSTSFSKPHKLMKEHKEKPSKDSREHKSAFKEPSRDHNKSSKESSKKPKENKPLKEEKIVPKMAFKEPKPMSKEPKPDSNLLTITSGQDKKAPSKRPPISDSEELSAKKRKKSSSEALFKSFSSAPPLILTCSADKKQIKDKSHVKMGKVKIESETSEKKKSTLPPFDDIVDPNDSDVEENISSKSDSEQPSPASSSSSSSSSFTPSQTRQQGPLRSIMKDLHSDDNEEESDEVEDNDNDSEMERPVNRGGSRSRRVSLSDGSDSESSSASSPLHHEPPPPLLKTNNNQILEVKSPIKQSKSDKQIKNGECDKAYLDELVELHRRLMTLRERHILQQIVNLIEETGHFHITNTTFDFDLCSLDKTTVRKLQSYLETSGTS
# T cruzi inh: blocks replication of Trypanosoma cruzi | T. cruzi beta-gal in NIH3T3, luminescence, 90 h | inhibition, % (no concentration beside the values) | actives 1.4% (n = 300,000);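 active means mean inhibition across valid replicates above about 55%, limit read from the data; inconclusive means mean below that limit but half or more replicates reach it; inactive means mean below it, under half of replicates reach it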;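 further: signal also drops with host cell toxicity which is not excluded here; 0% = plate median of DMSO wells and 100% = zero luminescence signal; higher percent means less beta-gal luminescence so fewer parasites; stock transfer was 50 nL into about 50 µL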
# Calb FLC: affects C. albicans growth with fluconazole | AID 1979 | C. albicans CaCi-2 (fluconazole-resistant clinical isolate) + fluconazole, Alamar Blue growth, 48 h | growth inhibition, % (no concentration beside the values) | actives 0.57% (n = 300,000);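 active means most replicates above 75%; inconclusive means exactly half above 75%; inactive means most below 75%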;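 further: all wells also contain fluconazole at 8 µg/ml as a sub-toxic cotreatment; 0% = median of DMSO wells and 100% = median of geldanamycin control wells; wells of about 8 µL received 7.5 nL stock; the first replicate is given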
# Beta apoptosis: blocks beta cell apoptosis; INS-1E cytokine-induced death, ATP luminescence, 48 h; percent of positive-control rescue, neutral wells zero; protection from apoptosis, % (test concentration not listed); actives 0.8% (n = 300,000); AID 435005;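 active means all replicates at 75% or more, or half of them and the mean; inconclusive means half reach 75% but not the mean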;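 further: 0% = cytokine-treated negative control wells and 100% = positive control rescue; higher means more ATP so stronger rescue from cytokine killing; wells of about 40 µL received 100 nL stock; the first replicate is given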
# Ecoli rRNA inh: inhibits bacterial ribosomal RNA function over humanized ribosomes. E. coli WT GFP vs humanized-ribosome RFP mutants, fluorescence, 24 h; active compounds read low; DMSO median 0, no signal -100. GFP signal change (wild-type ribosome), % (no concentration beside the values). actives 1.6% (n = 350,000). AID 720706;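 active means significant combined selectivity score with lowered wild-type GFP, culture density cut under 30%, mutant RFP and density less affected; inactive means any of these conditions unmet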; further: one replicate is shown; some compounds called inactive have numbers as strong as hits
# Ecoli rRNA inh OD600: recorded beside Ecoli rRNA inh, whose call it bears; OD600 change, %; measured here: OD600 growth;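 optical density of the mix in the first replicate; 0 = DMSO median and -100 = no signal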
# Ecoli rRNA inh RFP: also measured in Ecoli rRNA inh; calls as there; RFP signal change, %; measured here: RFP humanized mutant strains;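 first replicate; 0 = DMSO median and -100 = no signal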
# Active calls of the source: *; ? = inconclusive; . = no result given; & = joins results of further samples. The list is partial, so the mix of outcomes need not match the whole.
SMILES,RanGTP-Impb inh,Vif A3G,A1 inh,AF4-AF9 inh,T cruzi inh,Calb FLC,Beta apoptosis,Ecoli rRNA inh,Ecoli rRNA inh OD600,Ecoli rRNA inh RFP
Cc1cc(C)nc(NC(=O)CN2C(=O)c3ccccc3S2(=O)=O)n1,2.1,-2%,0.3,-5.4,-17,4,.,2,2,-0.4
COc1cc(NC(=O)CSc2ncnc3c2cnn3Cc2ccccc2)cc(OC)c1,5.8,4%,0.3,.,-20,-15,1,.,.,.
Cc1ccc(C(=O)NCC(=O)OCC(=O)Nc2ncc(C(F)(F)F)cc2Cl)cc1,-0.8,16%,0.3,-1.9,-15,18,0,0,-5,0.6
C/C=C/CSc1nc2c(c(=O)[nH]c(=O)n2C)n1C(C)C,.,2%,0.0,.,-4,-1,3,.,.,.
Cn1c(CNC(=O)c2cccs2)n[nH]c1=S,-1.6,-3%,0.3,-2.1,4,15,6,10,5,-1.8
CCC(C)N(C(=O)CSc1ncnc2sccc12)C1CCS(=O)(=O)C1 (stereo not given),.,-2%,-0.3,-1.2,.,.,-2,4,10,-2.3
Cc1cc(C)c(S(=O)(=O)NCCn2ccc3ccccc32)c(C)c1,-2.6,-51%,0.4,-2.6,11,-5,2,5,-7,3.9
CC1CN(c2nc3ccccc3nc2NS(=O)(=O)c2ccccc2)CC(C)O1 (stereo not given),.,-4%,-0.8,0.1,.,.,6,-6,-13,-4.5
CCOC(=O)C1(CCc2ccccc2)CCN(Cc2ccccn2)CC1,17*,-1%,-0.2,-18,-8,-8,-3,-13,-14,5.5
COc1ccccc1C(=O)NCCC(=O)NNC(=O)Cn1ccc(C(F)(F)F)n1,3.7,7%,0.8,-1.7,-10,-2,-2,-2,2,-1.3
COc1ccccc1N(CN1C(=O)c2ccccc2C1=O)C(=O)c1cccc(C)c1,10,.,1.8,9.1,-27,1,-3,-30*,-16*,3.0*
Cn1c(=O)c(NC(=O)c2ccccc2)c2n(c1=S)CCCCC2,-4.0,-2%,0.1,.,-8,28,.,.,.,.
COc1ccc(/C=N/Nc2nc(Nc3ccccc3)nc(N3CCCC3)n2)cc1,-0.2,-15%,0.4,2.9,28,9,.,13,14,2.8
CSc1ccc(C(=O)c2[nH]c(=O)[nH]c2C)cc1,0.5,.,1.6,-3.6,-15,8,0,.,.,.
Fc1cccc(/C=N/Nc2nccnc2Cl)c1,-0.1,.,-13,-1.2,-10,18,42,4,5,-2.4
Cc1cccc(NS(=O)(=O)c2c(C(=O)N3CCCC3)c(C)n(C)c2C)c1,?,.,0.5,-0.1,7,2,-2,10,-3,3.1
CCn1c(SCC(=O)N/N=C/C=C/c2ccccc2[N+](=O)[O-])nnc1-c1ccc(Cl)cc1,3.1,.,0.4,2.3,-11,-7,-3,-16,-14,-5.8
N#Cc1ccsc1NC(=O)CN1CCOCC1,2.9,.,0.4,9.3,-13,4,-1,6,5,-0.3
O=C(NC1CCCC1)C(c1ccncc1)N(C(=O)c1csnn1)c1ccccc1 (stereo not given),1.8,.,0.0,-1.7,-27,4,-5,1,5,-4.8
Nc1nc(N)n(-c2ccccc2)c(=Nc2ccccc2)n1,-11,-5%,-0.4,1.1,-7,5,5,3,8,-2.3
O=[N+]([O-])c1ccc(N2CCN(c3ccccn3)CC2)c(Cl)c1,4.1,.,-0.4,2.2,15,-1,3,-4,-3,-1.5
CCOc1ccc2nc(SCC(=O)c3cccs3)sc2c1,5.2,66%,0.5,.,-8,18,-5,.,.,.
O=C(NCc1ccncc1)c1cc(S(=O)(=O)N2CCOCC2)c(Cl)cc1Cl,-2.1,-3%,0.5,1.0,-5,0,-2,-1,10,-2.1
CCc1ccccc1NC(=O)CNC(=O)c1ccc(OCc2cn3ccccc3n2)cc1,.,1%,-0.4,0.4,.,.,-12,.,.,.
CCN1CCN(CCCNC(=O)CCC(=O)N2CC(C)Oc3ccc(C)cc32)CC1 (stereo not given),5.0,.,.,49*,-1,-7,-7,2,8,-2.3
CC(=O)OCC(=O)Nc1ccc(N=Nc2ccccc2)cc1,-1.3,.,-0.4,14,2,-20,-1,-5,11,-8.1
Nc1cc(S(=O)(=O)C(F)(F)F)ccc1C(=O)O,1.4,-1%,-0.4,.,7,-8,-4,.,.,.
COc1ccc(NC(=O)CN(C)S(=O)(=O)c2ccc(Cl)cc2)cc1Cl,1.6,-2%,0.2,.,25,2,4,.,.,.
COc1cc(NC(=O)CN2C(=O)CSc3ccc(S(=O)(=O)N4CCCC4)cc32)cc(OC)c1,5.4,.,0.1,0.5,-11,-9,-9,-1,-2,16
CCc1nnc2sc(-c3ccc(NC(=O)CSc4ccc(Cl)cc4)cc3)nn12,-3.1,.,-1.7,.,24,0,-6,.,.,.
CC(C)CN(C(=O)c1cccc(S(=O)(=O)N2CCN(Cc3ccccc3)CC2)c1)C1CCS(=O)(=O)C1 (stereo not given),?,1%,-0.3,28*,2,0,-1,5,1,-1.1
Cc1ccc(C(=O)N2CCCC(Nc3ccc(C(C)C)cc3)C2)cn1 (stereo not given),3.3,0%,.,3.3,3,-4,.,-1,-5,-1.1
O=C(Nc1ccc(S(=O)(=O)N2CCCCC2c2cccnc2)cc1)c1ccccc1F (stereo not given),2.0,2%,1.3,-2.4,32,?,-4,-35,-30,-4.5
CC1CCCC(C)N1CCCNC(=O)Cn1cc2c(n1)CCCC2 (stereo not given),9.3,-2%,0.4,1.9,-18,11,-4,11,17,1.2
Cc1cccc(/C=C/C(=O)c2ccc(NC3=NCCCS3)cc2)c1,.,0%,-3.1,13,55*,.,9,-40,-42,-7.5
COc1ccc2[nH]cc(C(=O)N3CCCCC3)c(=O)c2c1,-2.9,5%,0.4,.,0,-1,-8,.,.,.
Cc1ccc(Nc2nnc(SCC(=O)Nc3cccc(S(=O)(=O)N4CCCCC4)c3)s2)cc1,?,.,0.2,2.9,13,15,0,-14,-10,18
O=c1c([N+](=O)[O-])cccn1Cc1ccccc1Cl,-1.3,-3%,0.6,-1.6,39,-7,-4,18,-5,-1.1
CC(C)=NNc1nc(-c2ccccc2)cs1,-0.6,3%,1.0,2.3,11,0,2,14,9,2.1
CSc1n[nH]c(NCc2ccccc2)n1,-3.0,-6%,-0.1,.,4,1,-2,.,.,.
CC1CCN(C(=O)Cn2cnc3c(cnn3C(C)(C)C)c2=O)CC1,0.3,.,-0.5,-0.5,-8,-6,-2,15,15,1.6
Cc1nc2ccccn2c1C(=O)NCCCN1CCOCC1,7.1,3%,0.7,.,-5,-2,-4,.,.,.
COc1ccc(NC(=O)CN(C)S(=O)(=O)c2ccc3c(c2)OCCO3)c2ncccc12,0.4,1%,-2.1,.,6,16,2,.,.,.
O=C1CC(SC(=NCc2ccc3c(c2)OCO3)Nc2ccccc2)C(=O)N1c1ccccc1 (stereo not given),?,8%,-0.3,.,24,1,-9,.,.,.
O=c1cc[nH]c2c1ccc1cccnc12,-4.8,.,0.1,-15,-5,3,-21,-6,-5,-4.3
CC(=O)c1c(O)cc(O)cc1CC(=O)O,-2.9,22%,0.6,-3.0,-7,13,4,10,5,0.8
C#CCn1c(-c2ccccc2)ccc(C#N)c1=O,2.3,-4%,0.0,-3.5,2,-24,-5,-9,-6,0.9
Cn1c(=O)n(CC(=O)NCc2cccnc2)c2ccccc21,-2.8,-3%&-1%,0.6,.,8,-9,1,.,.,.
O=C(O)[C@@H]1CCCN(S(=O)(=O)c2cccc3cccnc23)C1,.,.,1.8,3.8,.,.,5,-15,-17,14
Cc1ccc(C)c(SCC(=O)OCC(=O)N2CC(C)OC(C)C2)c1 (stereo not given),-0.5,5%,0.5,0.9,3,7,-3,-6,-5,0.7
COc1ccc(C(=O)NC(=O)N2CCCCC2)cc1,0.4,1%,2.6,.,-11,3,-11,.,.,.
CC(C)C(=O)N1CCN(c2nc(-c3ccc(Cl)cc3)cs2)CC1,8.3,2%,0.1,.,-8,3,4,.,.,.
COC(=O)c1sccc1NC(=O)Nc1cccc(C)c1C,.,.,-2.7,-6.0,.,30,2,-9,3,-6.1
Cc1cc(C)c2cc(CN(CCO)Cc3nnnn3Cc3ccc(F)cc3)c(=O)[nH]c2c1,-4.1,1%,.,.,2,35,.,.,.,.
O=C(c1ccc(S(=O)(=O)NCc2ccco2)cc1)N1CCCC1,-0.8,0%,-0.9,-2.8,-7,-17,-1,19,15,4.1
COc1ccc(N(CC(=O)Nc2ccc3c(c2)OCO3)S(=O)(=O)c2ccc(C)cc2)cc1OC,1.5,0%,0.6,0.3,0,3,-4,11,6,-4.9
Cn1c(=O)c2c(nc(SCC(=O)NCc3ccco3)n2C)n(C)c1=O,3.2,5%,-0.5,.,-12,3,-10,.,.,.
O=C(O)c1cccc(NS(=O)(=O)c2ccc3nnn(O)c3c2)c1,3.8,9%,0.0,.,-9,2,-1,.,.,.
O=C(CSc1nc2cc(S(=O)(=O)N3CCOCC3)ccc2o1)Nc1c(F)cccc1F,0.6,-10%,-0.5,-2.8,9,-20,0,-2,1,-2.2
CC(C)(C)c1ccc(-c2nc(C#N)c(NCc3ccncc3)o2)cc1,1.7,7%&8%,-0.2,.,-37,39,-4,.,.,.

# Next compounds:
SMILES,RanGTP-Impb inh,Vif A3G,A1 inh,AF4-AF9 inh,T cruzi inh,Calb FLC,Beta apoptosis,Ecoli rRNA inh,Ecoli rRNA inh OD600,Ecoli rRNA inh RFP
Cc1ccccc1NC(=O)c1ccccc1O,-5.0,26%,-3.4,4.9,-21,?,4,-54,-78,-28
CCCCc1ccc(NC(=O)N[C@H](C(=O)O)C(C)C)cc1,-0.7,7%,0.5,.,-7,4,-7,.,.,.
Cc1ccc(C(=O)N/C(=C\c2ccc(F)cc2)C(=O)NCCN2CCOCC2)cc1,5.2,.,0.4,-1.3,-9,-21,0,8,10,-0.5
CC(C)(C)NC(=O)CSc1ncccc1-c1nc2ccccc2[nH]1,-5.5,.,1.1,-0.9,-8,-16,0,5,14,-1.7
C=CCNC(=O)c1ccccc1CCc1ccccc1,5.5,.,0.0,-1.0,0,-25,0,-26*,5.3*,8.1*
COc1ccc2nc(N3C(=O)/C(=C/c4ccccc4)NC3=S)sc2c1,-6.8,8%,-1.2,0.0,-11,-9,14,5,4,4.0

# Only A1 inh (2 entries from above):
structure | A1 inh
Cc1ccccc1NC(=O)c1ccccc1O | -3.4
CCCCc1ccc(NC(=O)N[C@H](C(=O)O)C(C)C)cc1 | 0.5
